# Assay outcomes as filed in PubChem BioAssay.
# KCNQ2 pot = enhances the rat KCNQ2 potassium channel; B-score at 10 µM; O88943; CHO-K1 KCNQ2, FluxOR thallium flux fluorescence; active compounds read high; hit rate 0.54% among 310,000; AID 2239;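 active = fluorescence ratio B-score at least 3 SD of library B-scores, with initial fluorescence B-score within 3 SD, cut at about 5.3 in these data; same plate scores as AID 2156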;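 note: B-score of peak minus minimum over baseline fluorescence ratio after K+ and Tl+ stimulus; positive B-score means potentiation of KCNQ2 with more thallium influx and brighter signal; only the inactives scoring about 0 or higher are listed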
# Target sequence (O88943 whole entry, looked up): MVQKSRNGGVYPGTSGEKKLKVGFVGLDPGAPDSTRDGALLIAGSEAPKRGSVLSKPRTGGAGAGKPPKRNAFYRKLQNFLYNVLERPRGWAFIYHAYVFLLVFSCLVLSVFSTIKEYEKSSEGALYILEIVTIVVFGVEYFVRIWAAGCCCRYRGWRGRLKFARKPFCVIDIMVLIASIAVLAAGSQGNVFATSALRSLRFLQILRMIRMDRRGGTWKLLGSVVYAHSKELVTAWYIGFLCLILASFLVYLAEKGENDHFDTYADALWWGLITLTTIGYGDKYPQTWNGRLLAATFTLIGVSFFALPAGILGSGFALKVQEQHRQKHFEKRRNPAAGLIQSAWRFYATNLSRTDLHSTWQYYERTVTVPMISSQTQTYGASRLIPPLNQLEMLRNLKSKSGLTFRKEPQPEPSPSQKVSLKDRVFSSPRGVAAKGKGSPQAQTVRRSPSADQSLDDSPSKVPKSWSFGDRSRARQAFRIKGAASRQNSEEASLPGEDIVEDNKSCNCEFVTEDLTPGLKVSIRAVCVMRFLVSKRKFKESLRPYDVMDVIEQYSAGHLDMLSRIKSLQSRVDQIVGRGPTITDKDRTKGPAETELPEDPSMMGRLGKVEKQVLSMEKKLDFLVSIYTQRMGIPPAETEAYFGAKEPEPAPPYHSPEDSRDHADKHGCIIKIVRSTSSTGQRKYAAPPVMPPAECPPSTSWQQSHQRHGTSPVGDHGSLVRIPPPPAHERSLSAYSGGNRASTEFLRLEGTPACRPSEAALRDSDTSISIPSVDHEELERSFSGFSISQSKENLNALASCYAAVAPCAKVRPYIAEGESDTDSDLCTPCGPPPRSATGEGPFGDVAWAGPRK
# KCNQ2 pot baseline = second read-out of KCNQ2 pot, no call of its own (marks repeat the call); B-score; compound at 10 µM; measured here: initial fluorescence intensity artifact check;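 brightness before thallium and not channel activity; 0 = typical well and far values either way flag optical interference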
# * marks the source's active call; other numbers are inactive results. These rows are one share of the data. The share of hits here may be higher or lower than overall.
SMILES,KCNQ2 pot,KCNQ2 pot baseline
CCCN(CC(=O)Nc1ccccc1C)C(=O)c1cccc(S(=O)(=O)N2CCc3ccccc3C2)c1,0.9,0.08
CN1CCN(S(=O)(=O)c2ccc(-c3ccccc3)cc2)CC1,0.39,-0.27
COc1ccc(C(=O)NCC(=O)OCCCOC(=O)CNC(=O)c2ccc(OC)c(OC)c2)cc1OC,2.7,-0.24
CCOC(=O)/C(=N\Nc1ccc(C(C)=O)cc1)c1csc(Nc2ccccc2)n1,1.4,0.16
COC(=O)N1CC(C)N(C(=O)OC)CC1C (stereo not given),0.64,0.64
Cc1cccc(-c2nc(S(=O)(=O)c3ccc(F)cc3)c(NCCCN3CCOCC3)o2)c1,1.1,-0.88
CCCCOc1ccc(C(=O)NN2C(=O)NC3(CCCCC3)C2=O)cc1OC,2,-0.37
Fc1ccc(N2CCN(Cc3cnc(Cl)s3)CC2)cc1,0.02,-0.64
O=C(OC1CCCCC1=O)c1ccc(F)c(S(=O)(=O)N2CCOCC2)c1 (stereo not given),0.35,1.7
Cc1nc(SCC(=O)NCC2CCCO2)c2oc3ccccc3c2n1 (stereo not given),0.49,-0.02
O=C/C(=C\Nc1ccc(S(=O)(=O)CCO)cc1)c1nc2cc(Cl)ccc2o1,1.2,-0.33
Cc1ccc(NC(=O)N2CCCC2C(=O)Nc2ccc3c(c2)OCO3)cc1 (stereo not given),0.6,0.69
O=C(COc1ccccc1[N+](=O)[O-])N/N=C/C=C/c1ccco1,1.4,0.85
NC(=S)Nc1ccc(Oc2ccc(NC(N)=S)cc2)cc1,1.4,-1.4
O=C(NCCC1=CCCCC1)C1CCN(S(=O)(=O)c2cccs2)CC1,0.82,-0.26
CCN(CC)c1ccc(C(=O)NN)cc1,2.8,2.5
COC(=O)C(O)(CC(=O)c1ccc(OC)cc1)C(F)(F)F (stereo not given),0.57,1.7
CCCCn1c(SCC(=O)N(C)C2CCS(=O)(=O)C2)nc2cc(S(N)(=O)=O)ccc21 (stereo not given),1.1,-1.2
CC(C)C(=O)Nc1ccc(C(=O)Nc2nnc(C(C)C)s2)cc1,0.06,0.01
COc1ccc(CNC(=S)Nc2ccccc2)cc1Cl,1.9,0.94
O=C1CC(Nc2ccc(N3CCOCC3)cc2)C(=O)N1c1ccccc1 (stereo not given),2,-0.01
Nc1ccc2nc(-c3cccc(-c4nc5ccc(N)cc5[nH]4)n3)[nH]c2c1,1.4,-0.24
CCCCNC(=S)Nc1ccc(F)cc1,0.37,0.56
Cc1ccc(NCc2n[nH]c(=S)n2-c2ccccc2)cc1,0.01,-0.46
O=C(NCc1ccccc1)N1CCOc2ccccc21,0.02,-0.1
NS(=O)(=O)c1ccc(NC(=O)/C=C/c2ccc(S(=O)(=O)NCc3ccco3)cc2)cc1,1.5,-1.3
Cc1nc2ccccn2c1C(=O)Nc1ccc2c(c1)OCCO2,0.56,-0.14
CC(=O)Nc1ccc(S(=O)(=O)N2CCN(S(=O)(=O)N3CCCCC3)CC2)cc1,0.03,0.24
CCC(NC(=O)CCc1c(C)c2cc3c4c(oc3cc2oc1=O)CCCC4)C(=O)O (stereo not given),2.2,1.4
Cc1ccc(N2CC(C(=O)Nc3cc(C)ccc3F)CC2=O)cc1 (stereo not given),0.01,0.18
CCc1cc(C(=O)Nc2ccccc2)cs1,2.2,-0.56
COc1ccc(-c2nnc3sc(COc4ccc(C)cc4)nn23)cc1,0.82,3.2
COc1ccc(/C=C(/NC(=O)c2ccccc2)C(=O)NCC2CCCO2)cc1 (stereo not given),1.4,-2.1
O=[N+]([O-])c1ccc(/C([O-])=C(/C(=S)Nc2ccccc2F)[n+]2ccccc2)cc1,0.37,0.6
O=C(Nc1ccc2c(c1)OCO2)c1c(F)cccc1F,0.57,-0.28
COc1ccc(-n2c3c(cc(C(=O)N4CCC(C)CC4)c2=O)C(=O)CC(C)(C)C3)cc1,1,-2.1
N#CC1=C(N)Oc2n[nH]c(-c3cccs3)c2C1C1C=CCCC1 (stereo not given),0.94,0.75
Cc1cc(C)nc(/N=C2\NC(=O)CC(C(=O)O)N2c2ccc(Cl)cc2Cl)n1 (stereo not given),0.01,-0.28
COc1ccc(NC(=S)Nc2cccc(S(=O)(=O)N3CCCCC3)c2)cc1,3,0.13
O=C(Nc1ccc(S(=O)(=O)N2CCC(C(=O)NC3CCCCC3)CC2)cc1)c1ccco1,0.44,0.86
COc1cccc(-c2c(C(=O)N/N=C/C3CC=CCC3)nnn2-c2nonc2N)c1 (stereo not given),0.35,-0.92
CCCCC/C(=N\NC(=O)Nc1ccccc1)c1ccccc1,0.08,-0.41
CCN(CC)c1ccc(-n2c(O)c(C=C3N=c4ccccc4=N3)sc2=S)cc1,0.11,0.55
CCC(Oc1cc(Cl)ccc1Cl)C(=O)NN1C(=O)C2C3CCC(C3=C(C)C)C2C1=O (stereo not given),1.1,0.91
CCc1ccc(OCC(=O)NNC(=O)C2CCN(c3ncnc4sc(C)c(C)c34)CC2)cc1,0.15,-0.02
CC(C)C1Cc2c(sc(NC(=S)NC(=O)c3ccccc3)c2C#N)CO1 (stereo not given),1.6,-0.14
Cc1cc(NC(=O)c2ccccc2)sc1C,0.02,0.07
COc1ccc(CCNC(=O)C2CCN(S(=O)(=O)c3cnc[nH]3)CC2)cc1OC,1.4,-1.5
C/C=C(\C)CN1CCC(Oc2cc(C(=O)NC3CC3)ccc2OC)CC1,0.02,0.08
O=C(NC(=O)c1csnn1)Nc1ccccc1Cl,1.2,0.01

# Continued.
SMILES,KCNQ2 pot,KCNQ2 pot baseline
C/C(=N\NC(=O)c1c(Cl)c(C)nn1C)c1cccc(NC(=O)COc2ccc(Cl)cc2)c1,1.3,0.77
Cc1cccc(C)c1NC(=O)CN(C)C(=O)C(c1ccccc1)c1ccccc1,0.43,1.4
Brc1ccc(CNc2cc3c(cc2Br)OCCO3)cc1,0.02,-0.18
COc1ccc([N+](=O)[O-])cc1NC(=O)c1cc(C)c(C)o1,0.61,-0.44
CS(=O)(=O)N1CCC2(CC1)OCCN2S(=O)(=O)c1ccccc1,1,-2
CS(=O)(=O)N(CCc1ccccc1)CC(=O)NCc1cccnc1,1.1,1.9
COC(=O)c1ccccc1NC(=O)C(=O)NCc1ccncc1,2,-0.19
COc1ccccc1-c1ocnc1C(=O)N1CCN(S(=O)(=O)c2ccc(NC(C)=O)cc2)CC1,0.46,-0.76
CCCCN1C(=S)NC[C@@H]1Cc1ccccc1,0.05,1.1
O=C(O)CCCC(=O)N1N=C(c2ccccc2)CC1c1ccc2c(c1)OCO2 (stereo not given),1.6,-0.04

# Random excerpt: three compounds from above, in no set order.
SMILES,KCNQ2 pot,KCNQ2 pot baseline
COc1ccc([N+](=O)[O-])cc1NC(=O)c1cc(C)c(C)o1,0.61,-0.44
COC(=O)c1ccccc1NC(=O)C(=O)NCc1ccncc1,2,-0.19
CS(=O)(=O)N(CCc1ccccc1)CC(=O)NCc1cccnc1,1.1,1.9

# Additional records.
SMILES,KCNQ2 pot,KCNQ2 pot baseline
Cc1ccc(S(=O)(=O)NN2C(=O)/C(=C/c3ccc(C(=O)O)cc3)SC2=S)cc1,0.38,-2.2
O=c1c2ccccc2nc(-c2ccc([N+](=O)[O-])cc2)n1O,1.5,0.51
COc1cc(C(=O)NCc2nnc(SCC(=O)Nc3cc(C)cc(C)c3)o2)cc(OC)c1OC,0.13,-0.02
CCN(CC)C(=O)CSc1nc2ccc(NC(=O)CSc3nccn3C)cc2s1,0.01,0.25
Cc1ccc(N2C(=O)C3C4C=CC(C4)C3C2=O)cc1C (stereo not given),0.28,0.86
O=c1c2ccccc2c(C=Nc2ccc(S(=O)(=O)N3CCCCC3)cc2)c(O)n1-c1ccc(Cl)cn1,0.32,0.34
CCN(CC)C(=O)Oc1ccc2c(=O)c(-c3ccccc3)coc2c1,0.05,1.4
Oc1ccc2n[nH]nc2c1,0.46,0.61
CCC1(CC)C(=O)N=C2c3ccccc3C(=O)N21,0.77,-0.58
Cc1ncsc1CCOC(=O)c1cccnc1,0.39,2.2
COc1cc(N2C(=O)C=CC2=O)c(OC)cc1Cl,1.2,4.1
O=C(N/N=C/c1ccc2c(c1)OCO2)c1ccc2ccccc2n1,0.03,-1.9
COc1cccc(NC(=O)N(CCCN2CCOCC2)C(C)c2cc3ccccc3o2)c1 (stereo not given),0.09,2.4
CCN1C(=O)C2C(c3cccc(F)c3)NC(CC)(C(=O)OC)C2C1=O (stereo not given),0.22,0.65
CC(C)CCNC(=O)C1CCN(S(=O)(=O)c2ccc3c(c2)CC(C)N3C(=O)C2CC2)CC1 (stereo not given),0.37,-0.92
COc1ccc(NC(=O)NCc2ccco2)cc1OC,0.3,-0.07
C=CCSc1nc(-c2ccc(OC)cc2)c(C#N)c(=O)n1CC=C,0.83,0.8
COc1ccc(NS(=O)(=O)c2cc(NC(=O)c3nc4nc(C)cc(C)n4n3)ccc2C)cc1,1,-0.7
CCC(=O)NC(=S)Nc1ccccc1F,0.44,-0.3
c1ccc(CNc2ccc3c(c2)ncn3C2CCCCC2)nc1,0.05,0.49
CCCn1c(SCC(=O)Nc2nonc2C)nnc1-c1ccoc1C,0.27,-0.47
CCCCOc1ccc(C(=O)NCc2ccco2)cc1,3.1,0.04
O=C(Cc1cccc2ccccc12)N/N=C1\CCCc2ccccc21,0.02,0.33
CCCc1cc(C(=O)NNC(=S)NCC)c2ccccc2n1,0.57,0.65
CC(C)(C)NC(=O)NC(=O)COC(=O)Cn1c(C(F)(F)F)nc2ccccc21,0.08,-0.17
O=C(c1ccsc1)N1CCCC(N2CCN(c3cccc(Cl)c3)CC2)C1 (stereo not given),0.21,-1.4
Cc1cc(Br)cc2c1NC(=O)C2(c1c(C)n(C)n(-c2ccccc2)c1=O)c1c(C)n(C)n(-c2ccccc2)c1=O,0.39,-0.33
NC(=S)Nc1ccc2cc[nH]c2c1,0.38,-0.95
CCC(C)c1ccc(NC(=O)COc2c(F)c(F)c(C(F)(F)F)c(F)c2F)cc1 (stereo not given),6.1*,1.2*
COCCNC(=O)c1c[nH]c2cc(OC)c(OC)cc2c1=O,2.4,-1.4

# The last six entries of the section above open the next one.
SMILES,KCNQ2 pot,KCNQ2 pot baseline
CC(C)(C)NC(=O)NC(=O)COC(=O)Cn1c(C(F)(F)F)nc2ccccc21,0.08,-0.17
O=C(c1ccsc1)N1CCCC(N2CCN(c3cccc(Cl)c3)CC2)C1 (stereo not given),0.21,-1.4
Cc1cc(Br)cc2c1NC(=O)C2(c1c(C)n(C)n(-c2ccccc2)c1=O)c1c(C)n(C)n(-c2ccccc2)c1=O,0.39,-0.33
NC(=S)Nc1ccc2cc[nH]c2c1,0.38,-0.95
CCC(C)c1ccc(NC(=O)COc2c(F)c(F)c(C(F)(F)F)c(F)c2F)cc1 (stereo not given),6.1*,1.2*
COCCNC(=O)c1c[nH]c2cc(OC)c(OC)cc2c1=O,2.4,-1.4
O=C1NC(c2cccs2)C(C(=O)c2ccccc2)C(O)(C(F)(F)F)N1 (stereo not given),1.1,-0.64
CC1(C)S/C(=N/N=C/c2ccco2)NC1=O,0.5,-0.06
O=S1(=O)CCS(=O)(=O)C1c1ccccc1,0.87,0.84
COC(=O)CN1C(=S)N(c2ccc(OC)cc2)C(=O)/C1=C/c1cccs1,0.56,-0.01
CN1CCN(CCCNc2c(C=O)c(=O)[nH]c3ccccc23)CC1,0.66,0.23
O=C(CCC(=O)N(CC(=O)NC1CCCCC1)Cc1ccccc1)Nc1ccccn1,0.46,-0.49
CC(=O)Nc1ccc(Nc2nc(C)nc3c2nnn3Cc2ccccc2Cl)cc1,1.1,2.1
CC1CC1C(=O)OCC(=O)NCc1ccc(Cl)cc1 (stereo not given),0.61,1.1
CCc1noc(C)c1C(=O)NNC(=O)c1cc(OC)c(OC)c(OC)c1,1.1,0.1
COc1ccc(C(=O)NCC(=O)OCC(=O)Nc2cc(OC)ccc2OC)cc1,0.65,1.6

# Whole records, looked up by structure. Values in the order: KCNQ2 pot, KCNQ2 pot baseline
# Record of `O=c1c2ccccc2c(C=Nc2ccc(S(=O)(=O)N3CCCCC3)cc2)c(O)n1-c1ccc(Cl)cn1` = 0.32, 0.34
# Record of `O=C(NCc1ccccc1)N1CCOc2ccccc21` = 0.02, -0.1
# Record of `COc1ccc(/C=C(/NC(=O)c2ccccc2)C(=O)NCC2CCCO2)cc1` (stereo not given) = 1.4, -2.1
# Record of `O=C(Cc1cccc2ccccc12)N/N=C1\CCCc2ccccc21` = 0.02, 0.33
# Record of `O=C(O)CCCC(=O)N1N=C(c2ccccc2)CC1c1ccc2c(c1)OCO2` (stereo not given) = 1.6, -0.04

# A different layout for two compounds above:
smiles | KCNQ2 pot | KCNQ2 pot baseline
COc1ccc(C(=O)NCC(=O)OCC(=O)Nc2cc(OC)ccc2OC)cc1 | 0.65 | 1.6
CCc1noc(C)c1C(=O)NNC(=O)c1cc(OC)c(OC)c(OC)c1 | 1.1 | 0.1

# Next section
SMILES,KCNQ2 pot,KCNQ2 pot baseline
CC(C)n1nc(C(=O)NNC(=O)c2ccncc2)c2ccccc2c1=O,0.49,-1.4
Cc1ccc(/C=C2/SC(=O)N(CC(=O)N3CCOCC3)C2=O)s1,0.41,0.85
O=C(Nc1ccc2c(c1)OCO2)c1cncc(Br)c1,1.1,2.3
CCOC(=O)C(C)c1n[nH]c(=O)c2ccccc12 (stereo not given),0.55,0.24
O=C(Cn1cc2c(n1)CCCC2)NCCCN1CCN(Cc2ccccc2)CC1,0.92,0.02
Cc1ccc(N2C(=O)C(NC(=O)c3ccccc3)(C(F)(F)F)C3=C2CC(C)(C)CC3=O)cc1 (stereo not given),0.07,0.28
CCN(CC)CC(=O)Nc1cccc(S(=O)(=O)N2CCCC2)c1,0.42,-2
O=C(/C=C/c1ccccc1Cl)Nc1cccnc1,4,-0.38
Cc1ccc(-n2cnc3ncnc(-c4ccccc4)c32)cc1,1.4,-0.1
Cc1cccc(NC(=S)NCC(c2cccnc2)N2CCOCC2)c1C (stereo not given),1.3,-0.64
O=C(CN1CCOCC1)Nc1nc2cc([N+](=O)[O-])ccc2s1,0.03,0.26
COc1ccccc1C(=O)N(Cc1sccc1C)C1CCS(=O)(=O)C1 (stereo not given),1.1,1.6
CCCCCNC(=O)C1c2ccccc2Oc2ccccc21,2.2,0.87
